VDR inh – Inhibitors of the vitamin D receptor (VDR): qHTS. Vitamin D3 receptor (Homo sapiens), P11473. hit rate 0.93% among 400,000. Potency, µM, inactives show max response, negative = inhibition, actives largely listed as inhibitors. VDR-SRC2-3 peptide fluorescence polarization, 2 h; active = well fitted inhibition curve with a large enough effect; inconclusive = small, poorly fitted or top-dose-only effect, or another doubt; inactive = no such curve, though single readings can be large or run the other way; also: series mostly up to about 120 µM
Target sequence (P11473 whole entry, looked up): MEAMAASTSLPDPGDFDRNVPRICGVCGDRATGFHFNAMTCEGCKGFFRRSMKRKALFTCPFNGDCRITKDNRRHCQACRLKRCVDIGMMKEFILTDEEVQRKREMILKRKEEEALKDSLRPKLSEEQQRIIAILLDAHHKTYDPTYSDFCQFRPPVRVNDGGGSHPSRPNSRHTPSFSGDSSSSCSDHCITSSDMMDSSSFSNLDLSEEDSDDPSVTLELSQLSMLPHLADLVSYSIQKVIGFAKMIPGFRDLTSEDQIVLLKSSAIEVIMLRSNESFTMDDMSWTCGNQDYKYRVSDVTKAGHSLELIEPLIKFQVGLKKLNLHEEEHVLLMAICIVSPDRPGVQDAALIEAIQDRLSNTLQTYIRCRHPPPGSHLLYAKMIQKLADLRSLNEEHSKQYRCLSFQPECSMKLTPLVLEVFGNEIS
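Fluorescence polarization assay of small-molecule disruption of VDR binding to coregulator peptide SRC2-3. Compounds and controls pin-transferred, then read after 2 h incubation at ambient room temperature.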
* marks the source's active call; other numbers are inactive results; ? = inconclusive; & = joins results of further samples. % is scaled to controls: 0 for no effect and ±100 for the full control effect; potency is read from the fitted curve at half-maximal effect. The list is partial (hit frequency here may not be typical).

VDR inh | mol
6.6% | COc1ccc(-c2cc(C)no2)cc1S(=O)(=O)N1CCN(c2ccc([N+](=O)[O-])cc2)CC1
-16.5% | CC1CCCC(NC(=O)C2CCN(C(=O)Nc3ccccc3)CC2)C1C (centres undefined)
-7.4% | CN(C(=O)COC(=O)c1ccc2c(c1)NC(=O)CS2)C1CCS(=O)(=O)C1 (centres undefined)
-0.6% | Cc1ccc(S(=O)(=O)NCCNC(C)c2ccc(Br)cc2)cc1 (centres undefined)
-8.8% | COc1ccc(OC)c(NC(=O)CCc2c(C)nc3c(-c4ccccc4)c(C)nn3c2C)c1
1.3% | COc1ccccc1NC(=O)C(C)OC(=O)CCC1CCCCC1 (centres undefined)
13.7% | CCOc1ccc(-c2c(C(=O)N/N=C/c3c[nH]c4ccccc34)nnn2-c2nonc2N)cc1
6.3% | COc1cc(C(C)=O)ccc1OCC(O)CN1CCN(S(=O)(=O)c2ccccc2)CC1 (centres undefined)
5.7% | CCOC(=O)C1=C(C)NC(SCC(=O)O)=NC1c1ccccc1 (centres undefined)
-9.9% | O=C(O)c1cc(NS(=O)(=O)c2cccc3nsnc23)cc(C(=O)O)c1
-12.3% | Cc1c(Nc2ncnc3nc[nH]c23)c(=O)n(-c2ccccc2)n1C
1.3% | C=CCOc1ccc(CNc2ccc3[nH]c(=O)[nH]c3c2)cc1OCC
18.8% | COC(=O)c1c(NC(=O)c2nc(SC)ncc2Cl)sc2c1CCCC2
-7.8% | COc1cc(NC(=O)CC2NCCNC2=O)cc(OC)c1 (centres undefined)
0.7% | O=Cc1ccc(C(=O)OCC(=O)NCc2ccco2)cc1
9.9% | CCc1ccc(NC(=O)c2ccc(S(=O)(=O)NCc3cccnc3)cc2)cc1
-23.5% | NC(=O)c1ccc(NC(=O)COC(=O)c2ccc3c(c2)OCO3)cc1
-10.3% | CC(=O)c1ccc(NC(=S)NCCc2ccccn2)cc1
-1.0% | CC(Nc1cccc2ccccc12)C(=O)N/N=C/c1ccc([N+](=O)[O-])cc1 (centres undefined)
5.1% | COc1cccc(-c2nccc(NC3CCNCC3)n2)c1
10.7% | Cc1cccc2sc(N(CCCN(C)C)C(=O)c3ccco3)nc12
-13.8% | CCCCSc1nnc2c(n1)OC(c1ccc(Br)s1)N(C(C)=O)c1ccccc1-2 (centres undefined)
3.4% | CNC(=S)N/N=C(\C)c1ccc2c(c1)OCO2
1.8% | Cn1c(CNC(=O)c2ccco2)nnc1SCC(=O)Nc1cccc(Br)c1
-7.6% | CN(C)C(=O)CSc1ncccc1-c1nc2ccccc2[nH]1
15.4% | COc1ccc(C2=NN(C(=O)CN3CCOCC3)C(c3nc4ccccc4[nH]3)C2)cc1 (centres undefined)
-12.5% | COc1ccc(/C=C(\NC(=O)c2ccccc2)C(=O)OCC2CCCN3CCCCC23)cc1OC (centres undefined)
2.6% | Cc1ccc(-c2nn(CC(=O)Nc3ccc4c(c3)nc3n4CCOC3)c(=O)c3ccccc23)cc1
12.9% | COc1ccc(N(Cc2cc3cc(OC)ccc3[nH]c2=O)C(=O)C2CCCO2)cc1 (centres undefined)
-8.6% | O=C(O)C1Oc2ccccc2C1c1ccccc1 (centres undefined)
18.8%&8.4% | CCc1nc2ccc(C(=O)N3CCN(c4ccccc4F)CC3)cc2nc1CC
0.9% | Cc1noc(C)c1C(=O)N1CCC2(CC1)CN(c1cccc(-c3ccccc3)c1)C2
-7.1% | CC(=O)Nc1cccc(N=NN2CCOCC2)c1
1.4% | O=C(Nc1cccc(F)c1)Nc1ccc2c(c1)C(=O)OC2
14.7% | Cc1ccccc1C(=O)NC1CCN(CC(=O)Nc2ccc(N(C)C)cc2)CC1
2.9% | COc1cccc(-n2c(=S)[nH]c3c(oc4ccccc43)c2=O)c1
-0.8% | Cc1ccccc1-c1nc(CS(=O)CC(=O)NCc2ccc3c(c2)OCO3)c(C)o1 (centres undefined)
-6.7% | O=C(N/N=C/c1cc([N+](=O)[O-])c(N2CCOCC2)cc1N1CCOCC1)c1cccnc1
-10.7% | O=C(Oc1ccccc1)c1cccc2cccc(C(=O)Oc3ccccc3)c12
9.9% | O=C1CCC(c2ccccc2)(c2ccccc2)CC1
-10.3% | COc1cccc(/C=C(/C(=O)OCC(=O)NCC2CCCO2)c2ccccc2)c1 (centres undefined)
-10.5% | CCOc1ccccc1C(=O)N1CCc2cc(OC)c(OC)cc2C1COc1ccc2c(C)cc(=O)oc2c1 (centres undefined)
16.3% | COc1ccccc1NC(=O)CSc1nnc(Cc2cccn2C)n1-c1ccc(F)cc1
4.4%&-8.3% | CCCCOc1ccccc1C(=O)N(Cc1ccc(C)o1)C1CCS(=O)(=O)C1 (centres undefined)
-2.4% | O=C(NCCc1ccccc1)c1nc(-c2ccc(Cl)cc2)n2c1CCCCC2
-21.0%&-0.6% | COc1ccc(-c2cc(=O)c3c(O)cc(O)cc3o2)cc1
-14.7% | CC12CCC(C(=O)N3CCc4ccccc43)(CC1=O)C2(C)C (centres undefined)
11.3% | Cc1ccc(S(=O)(=O)NCC(=O)N2CCCC2C(=O)O)cc1 (centres undefined)
-6.1% | CCOc1ccc(NC(=O)C(=O)NCc2ccncc2)cc1
-16.7% | O=c1oc2ccc3ccccc3c2cc1-c1nnc(-c2cccs2)o1

Among those listed so far, 2 have a Cl atom:
VDR inh | mol
18.8% | COC(=O)c1c(NC(=O)c2nc(SC)ncc2Cl)sc2c1CCCC2
-2.4% | O=C(NCCc1ccccc1)c1nc(-c2ccc(Cl)cc2)n2c1CCCCC2

More records:
VDR inh | mol
-1.4% | CCCSC1=NC2(CCN(C(=O)NC3CCCCC3)CC2)N=C1c1ccc(C)cc1
-18.0% | NC(=O)c1ccc(NC(=O)CCCc2nc(-c3ccccc3Cl)no2)cc1
7.9% | O=C(NC1CCCc2ccccc21)c1ccccc1OC(F)F (centres undefined)
4.2% | CCCCNc1nc(N(C)c2ccccc2)nc(-n2ccnc2)n1
3.1% | Cc1ccc(-c2nc(CC(=O)Nc3cccc(S(=O)(=O)NC4=NCCC4)c3)cs2)cc1
-0.6% | O=C(NC1CC1)C1=C[C@H](c2ccc(C(F)(F)F)cc2)C[C@H](OCCCCO)O1
-24.9% | COc1ccc(CCN2C(=O)CN=C2Nc2ccc(F)cc2)cc1OC
-21.5% | COc1ccc(N2CCN(c3cc(C)c4ccc(C)cc4n3)CC2)cc1
-9.9% | COc1ccc(CNC(=S)Nc2cc(C)cc(C)c2)cc1
-1.0% | CCCn1nc2ccccc2c1P(=N)(N1CCOCC1)N1CCOCC1
? | CC(OC(=O)c1ccc2c(=O)n3c(nc2c1)CCCCC3)C(N)=O (centres undefined)
-22.1% | N#Cc1c(-n2cccc2/C=N/O)sc2c1CCCC2
-9.3% | CCOc1ccc(/C=C/C(=O)Nc2ccccc2C(F)(F)F)cc1
8.5% | CCn1c(=N)n(CC(O)c2cccs2)c2ccccc21 (centres undefined)
-3.8% | CC(C)=CCC/C(C)=C/CNC(=O)C[C@H]1C[C@H](C(=O)N2CCOCC2)[C@@]2(C)c3[nH]c4ccc(Cl)cc4c3CCN2C1=O
2.5% | COCC(=O)NCc1nc2ccccc2n1Cc1ccccc1F
-6.6% | CC(C)CC(NC(=O)c1cccc(Cl)c1)C(=O)O (centres undefined)
-3.9% | O=C(O)c1ccccc1SC1CC(=O)N(c2ccccc2)C1=O (centres undefined)
17.0% | COc1ccc(C(CNC(=O)COc2ccc([N+](=O)[O-])cc2)N2CCCCC2)cc1 (centres undefined)
-0.8% | CCOc1ccc(NCc2ccccc2OCc2cccc(F)c2)cc1
-0.2% | Cc1cc(F)ccc1S(=O)(=O)Nc1ccc2c(c1)CCCN2C(=O)c1cccs1
7.7% | CCOC(=O)c1c(C)nc2sc(C(N)=O)c(N)c2c1-c1ccccc1
-13.9% | CC(=O)Nc1ccc(S(=O)(=O)NC(CC(=O)N(C)Cc2ccccc2)C(C)C)cc1 (centres undefined)
-6.6% | COc1cccc(-n2c(SC3CCOC3=O)nc3ccccc3c2=O)c1 (centres undefined)
-0.4% | CCOC(=O)c1c(NC(=O)COC(=O)Cn2c(C(F)(F)F)nc3ccccc32)sc(C)c1C

Structures above that contain bromine:
VDR inh | mol
-0.6% | Cc1ccc(S(=O)(=O)NCCNC(C)c2ccc(Br)cc2)cc1 (centres undefined)
-13.8% | CCCCSc1nnc2c(n1)OC(c1ccc(Br)s1)N(C(C)=O)c1ccccc1-2 (centres undefined)
1.8% | Cn1c(CNC(=O)c2ccco2)nnc1SCC(=O)Nc1cccc(Br)c1

Later entries
VDR inh | mol
7.7% | COc1cc(OC)c(-c2noc(C(=O)OC(C)(C)C)c2C(=O)OC(C)(C)C)c(OC)c1
0.6% | COc1nc(-c2ccccc2)cc(-c2ccc3c(c2)OCO3)c1C#N
0.4% | Cc1cccc(N2CCN(S(=O)(=O)c3cn(C)cn3)CC2)c1C
18.2% | COc1ccc([N+](=O)[O-])cc1NC(=S)NC(=O)C(C)(C)C
-9.2% | O=C(O)COc1ccc(/C=N/NC(=O)c2ccc(-c3csc(Nc4ccc(Cl)cc4)n3)cc2)cc1
24.2% | O=C(NNC(=O)C1CCN(c2ncccn2)CC1)c1ccc(F)cc1
1.3% | Cc1ccccc1C(=O)NCC(=O)NNC(=O)c1cccc(Cl)c1
-9.8% | CC(=O)c1ccc(OCC(=O)c2ccc(-c3ccccc3)cc2)cc1
4.4% | CCc1noc(C)c1C(=O)OC(C)C(=O)Nc1cc([N+](=O)[O-])ccc1OC (centres undefined)
? | COc1ccc2noc3c2c1C(=O)c1ccccc1-3
-1.3% | COC(=O)c1cc(OC)c(OC)c(OC)c1[N+](=O)[O-]
11.4% | C[C@@H]1[C@H]2CC[C@@H]3[C@@H]4CC=C5C[C@@H](N(C)C)CC[C@]5(C)[C@@H]4CC[C@@]32CN1C
7.6% | CC(=O)Nc1cccc(C(=O)N2CCN(S(=O)(=O)c3ccc4ccccc4c3)CC2)c1
? | O=C(CSc1ccc(Cl)cc1)N1CCCC1
-2.6% | CCN(C[C@H]1N[C@@](CC)(C(=O)OC)[C@H]2C(=O)N(C)C(=O)[C@@H]12)S(=O)(=O)c1ccccc1
-6.2% | COc1cc2sc(-c3ccc(S(C)(=O)=O)cc3)c(C#CCO)c2cc1OC
-24.9% | Cc1c(NC(=O)c2cccc(NC(=O)Cc3ccc(F)cc3)c2)c(=O)n(-c2ccccc2)n1C
-6.2% | COc1ccc(CNC(=O)C(OC(=O)c2cccs2)C(C)C)cc1 (centres undefined)
-13.8% | O=C(O)c1cccnc1Sc1ccccc1
12.6µM* | Cc1ccc(C(C[N+](=O)[O-])Sc2ccc(N)cc2)cc1 (centres undefined)
-6.5% | Cn1cnnc1SCC(=O)c1ccc(O)c(O)c1
-7.1% | CCN1C(=O)CC(C(=O)Nc2ccc(OC)cc2)SC1=Nc1ccc(C)c(C)c1 (centres undefined)
4.3% | COc1ccccc1-n1cnnc1SCC(=O)NC1CCCCC1
-16.2% | Cc1cccc(NC(=O)N2C3CCCC2CC(NC(=O)C(C)(C)C)C3)c1 (centres undefined)
-1.1% | CCOC(=O)c1c(NC(=O)COC(=O)c2ccc(O)cc2)sc(C(=O)N(C)C)c1C
2.4% | Cc1cc2c(c(SCC#N)n1)C(=O)OC2
3.2% | CC(Cc1cccs1)NC(=O)Nc1ccc(F)cc1 (centres undefined)
-6.6% | CC12CCC(=O)N1C(C(=O)NNC(=O)c1ccc(F)cc1)CS2 (centres undefined)
5.4% | O=c1oc2c(CN3CCCC3)c(O)ccc2cc1-c1ccccc1
-12.9% | Cc1c(C(=O)OCC(=O)NCC2CCCO2)oc2ccccc12 (centres undefined)
6.9% | CCn1c(SCC(=O)NC2CC2)nnc1-c1ccncc1
-14.7% | CCOP(=O)(OCC)C(NC(=O)Nc1ccc(Cl)cc1)C(=O)N(CC)CC (centres undefined)
-9.3% | O=C(Nc1ccc(NC(=O)c2ccccc2F)cc1)c1ccccc1F
2.4% | COCc1cc(C)nc2sc3c(c12)NC(c1ccc(NC(C)=O)cc1)N(c1ccc(C)cc1)C3=O (centres undefined)
-18.1% | Cc1ccc(C)c(CN2C(=O)CSc3ccc(C(=O)NCCN4CCOCC4)cc32)c1
-4.6% | O=C(O)c1cc(S(=O)(=O)NCCCN2CCCC2=O)ccc1Cl
3.0% | COc1ccc(C)cc1NCc1nnc2n1CCCCC2
3.5% | COc1cc(C=O)ccc1Oc1cnccn1
-13.4% | COc1ccc(C(C)=O)cc1COC(=O)c1cnc(Cl)c(Cl)c1
14.2% | Cc1ccc(C)c(NS(=O)(=O)c2cc(C(=O)N3CCc4ccccc4C3)ccc2Cl)c1
10.6% | Cc1ccc(Nc2nnc(SCn3nnc4ccccc4c3=O)s2)cc1
-6.3% | CCOC(=O)Cn1c(=O)c2c(nc(N3CCCCC3)n2Cc2ccccc2)n(C)c1=O
-8.3% | Cc1ccccc1CSc1nnc2ccc(-c3ccncc3)nn12
-17.4% | Cc1ccccc1NS(=O)(=O)c1cccc(C(=O)Nc2cccc(C(=O)O)c2)c1
-6.4% | O[C@@H]1CN(C2CCCCC2)CC[C@H]1N1CCN(CCc2ccccc2)CC1
11.0% | Cc1ccc(C)c(S(=O)(=O)N2CCN(C(=O)CCNS(=O)(=O)c3ccccc3)CC2)c1
-1.9% | O=C(NCC(=O)N1CCCC(C(F)(F)F)C1)c1ccco1 (centres undefined)
-8.2% | COc1ccc(Cl)cc1NC(=O)NCc1noc2ccccc12
-19.3% | Cc1cccc(-n2ccc(=O)c(C(=O)O)n2)c1

Look-ups from the results shown:
Cc1ccc(C)c(NS(=O)(=O)c2cc(C(=O)N3CCc4ccccc4C3)ccc2Cl)c1 in VDR inh = 14.2%
CC12CCC(=O)N1C(C(=O)NNC(=O)c1ccc(F)cc1)CS2 (centres undefined) in VDR inh = -6.6%

In the list so far, four contain a CF3 group:
VDR inh | mol
-0.6% | O=C(NC1CC1)C1=C[C@H](c2ccc(C(F)(F)F)cc2)C[C@H](OCCCCO)O1
-9.3% | CCOc1ccc(/C=C/C(=O)Nc2ccccc2C(F)(F)F)cc1
-0.4% | CCOC(=O)c1c(NC(=O)COC(=O)Cn2c(C(F)(F)F)nc3ccccc32)sc(C)c1C
-1.9% | O=C(NCC(=O)N1CCCC(C(F)(F)F)C1)c1ccco1 (centres undefined)
